# Screening results as filed in PubChem BioAssay.
# Ecoli rRNA inh = inhibits bacterial ribosomal RNA function over humanized ribosomes. GFP signal change (wild-type ribosome), % (no concentration beside the values). E. coli WT GFP vs humanized-ribosome RFP mutants, fluorescence, 24 h; active compounds read low; DMSO median 0, no signal -100. 350,000 compounds, 1.6% hits;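 active = significant combined selectivity score with lowered wild-type GFP, culture density cut under 30%, mutant RFP and density less affected; inactive = any of these conditions unmet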; also: one replicate is shown; some compounds called inactive have numbers as strong as hits
# T cruzi repl = blocks replication of Trypanosoma cruzi | AID 1885 | 300,000 compounds, 1.4% hits | inhibition, % (no concentration beside the values) | T. cruzi beta-gal in NIH3T3, luminescence, 90 h;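 active = mean inhibition across valid replicates above about 55%, limit read from the data; inconclusive = mean below that limit but half or more replicates reach it; inactive = mean below it, under half of replicates reach it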;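 also: signal also drops with host cell toxicity which is not excluded here; 0% = plate median of DMSO wells and 100% = zero luminescence signal; higher percent means less beta-gal luminescence so fewer parasites; stock transfer was 50 nL into about 50 µL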
# Beta2AR agonist = human beta-2 adrenergic receptor agonism by FAP; response, % (no concentration beside the values); 340,000 compounds, 0.43% hits; P07550; AID 504454; Am2.2-beta2AR cells, FAP receptor internalization, flow cytometry; reference of the scale not given here;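 active = response above a set limit, near 3 SD of response in nonfluorescent compounds, cut at about 42% in these data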;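 also: stock transfer was 100 nL into about 11 µL; a reference agonist was the positive control; negative values mostly stem from fluorescent compounds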
# Target sequence (P07550 whole entry, looked up): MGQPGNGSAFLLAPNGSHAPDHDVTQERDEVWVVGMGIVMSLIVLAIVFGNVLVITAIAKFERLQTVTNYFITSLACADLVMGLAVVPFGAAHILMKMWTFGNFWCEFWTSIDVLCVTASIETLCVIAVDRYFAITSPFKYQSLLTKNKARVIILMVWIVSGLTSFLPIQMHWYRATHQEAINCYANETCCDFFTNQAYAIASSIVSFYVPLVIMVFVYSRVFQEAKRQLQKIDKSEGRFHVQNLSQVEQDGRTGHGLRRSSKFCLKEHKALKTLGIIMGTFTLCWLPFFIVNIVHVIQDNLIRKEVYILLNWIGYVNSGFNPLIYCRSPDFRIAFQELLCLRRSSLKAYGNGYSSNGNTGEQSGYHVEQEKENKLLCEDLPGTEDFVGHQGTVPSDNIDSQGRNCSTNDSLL
# LANA-H2B inh = blocks KSHV LANA binding to histone H2A/H2B | Q9QR71 | cell-free LANA-H2A/H2B peptide, fluorescence polarization | inhibition, % (no concentration beside the values) | 320,000 compounds, 0.6% hits | AID 2629; in the data active = inhibition mostly above about 10%, no sharp cut-off; inactive = mostly below about 6.7%;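 also: stock transfer was 7.5 nL into about 10 µL; 0% = median of vehicle wells and 100% = median of positive control wells; one replicate is shown; the record names a cut of 25% in any replicate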
# ALR inh = human ALR oxidase inhibition via reduced H2O2 | P55789 | AID 485317 | inhibition, % (test concentration not listed) | 290,000 compounds, 3.8% hits | purified ALR, DTT oxidation, H2O2 HRP-luminol luminescence;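 active = mean and each replicate at 75% or more; inconclusive = only one of the two met; inactive = neither met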;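 also: stock transfer was 7.5 nL into about 7.5 µL; 0% = neutral wells and 100% = wells with inactivated enzyme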
# Target sequence (P55789 whole entry, looked up): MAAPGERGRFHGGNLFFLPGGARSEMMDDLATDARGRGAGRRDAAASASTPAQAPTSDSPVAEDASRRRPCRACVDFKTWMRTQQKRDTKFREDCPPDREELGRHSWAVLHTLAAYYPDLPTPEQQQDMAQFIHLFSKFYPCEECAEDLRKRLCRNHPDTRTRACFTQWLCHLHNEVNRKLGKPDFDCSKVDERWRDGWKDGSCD
# Beta apoptosis = blocks beta cell apoptosis | 300,000 compounds, 0.8% hits | protection from apoptosis, % (test concentration not listed) | INS-1E cytokine-induced death, ATP luminescence, 48 h; percent of positive-control rescue, neutral wells zero;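 active = all replicates at 75% or more, or half of them and the mean; inconclusive = half reach 75% but not the mean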;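 also: 0% = cytokine-treated negative control wells and 100% = positive control rescue; higher means more ATP so stronger rescue from cytokine killing; wells of about 40 µL received 100 nL stock; the first replicate is given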
# A1 inh = inhibitors of the anti-apoptotic protein A1, read as caspase activation. MEF A1-2A-BIM cells, Caspase-Glo 3/7 luminescence, 3 h; percent of clofoctol response, vehicle zero. caspase activation, % (no concentration beside the values). 330,000 compounds, 0.066% hits. AID 2462;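 active = over half of replicate activation scores above 10%, or exactly half above 10 with the replicate mean above 10; inconclusive = replicate mean below 10 yet half the replicates above 10; inactive = over half of replicates below 10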;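 also: wells of about 30 µL received 50 nL stock; many hits fall short of the cut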
# Calb FLC = C. albicans growth modulation with fluconazole. C. albicans CaCi-2 (fluconazole-resistant clinical isolate) + fluconazole, Alamar Blue growth, 48 h. AID 1979. 300,000 compounds, 0.57% hits. growth inhibition, % (no concentration beside the values);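 active = most replicates above 75%; inconclusive = exactly half above 75%; inactive = most below 75%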;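 also: all wells also contain fluconazole at 8 µg/ml as a sub-toxic cotreatment; 0% = median of DMSO wells and 100% = median of geldanamycin control wells; wells of about 8 µL received 7.5 nL stock; the first replicate is given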
# Ecoli rRNA inh OD600 = further read-out of Ecoli rRNA inh, marked with its call; OD600 change, %; measured here: OD600 growth;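 optical density of the mix in the first replicate; 0 = DMSO median and -100 = no signal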
# Ecoli rRNA inh RFP = second read-out of Ecoli rRNA inh, no call of its own (marks repeat the call); RFP signal change, %; measured here: RFP humanized mutant strains;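 first replicate; 0 = DMSO median and -100 = no signal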
# * = called active by the depositor; u = inconclusive; x = no result given.
SMILES | Ecoli rRNA inh | Ecoli rRNA inh OD600 | Ecoli rRNA inh RFP | T cruzi repl | Beta2AR agonist | LANA-H2B inh | ALR inh | Beta apoptosis | A1 inh | Calb FLC
Clc1cccc(NCc2nnc3n2CCCCC3)c1 | 4 | 1 | 0.1 | 6 | 1 | 8.4 | -12 | 3 | -0.3 | 5
CCOc1cc(S(=O)(=O)NCc2ccc(OC)cc2)c(OCC)cc1-n1cnnn1 | x | x | x | 4 | -14 | 0.6 | -1 | 1 | -0.2 | -21
COc1ccc(S(N)(=O)=O)cc1C(=O)OCCCOc1ccc(F)cc1 | -6 | -4 | 1.7 | -6 | 1 | -3.1 | -1 | 3 | 4.4 | x
Cc1ccc(OCCCC(=O)Nc2nc3ccccc3[nH]2)cc1 | 4 | 4 | -2.0 | -1 | -16 | 2.2 | -23 | 4 | 0.5 | 110*
O=C(CN(C(=O)CCC(=O)Nc1ccccn1)c1ccc2c(c1)OCCO2)NCCc1ccccc1 | x | x | x | 1 | 6 | 4.1 | x | -10 | 2.7 | 1
CC1CCCN(C(=O)c2sc3cc([N+](=O)[O-])ccc3c2Cl)C1 (stereo not drawn) | x | x | x | -14 | 1 | x | x | -5 | -0.6 | 22
COc1ccc(CCNC(=S)NC(=O)c2cccc([N+](=O)[O-])c2)cc1OC | -1 | 2 | 0.1 | -21 | 0 | 1.7 | 40 | 6 | -0.1 | 9
CC(=O)N1CCN(CC(=O)Nc2ccc(Cl)c(S(=O)(=O)N(C)C)c2)CC1 | 14 | 8 | -7.2 | -9 | 3 | 4.8 | -7 | 2 | 0.3 | 19
COc1ccccc1N1CCN(C(=O)c2ccc([N+](=O)[O-])s2)CC1 | 0 | 2 | 2.6 | 47 | -9 | -0.7 | -12 | 19 | -0.8 | 41
Cc1cnc(C(=O)OCc2csc(CC(=O)Nc3ccccc3C)n2)cn1 | 2 | -8 | -0.7 | -6 | 0 | 0.7 | -9 | 1 | -1.2 | 2
Cc1ccc(NC(=O)Nc2cc(S(=O)(=O)N(C)C)ccc2C)cc1 | -23 | -24 | -10 | -5 | 6 | -7.9 | 0 | 4 | -0.3 | -15
OCCCNc1ncnc2c1cnn2-c1ccc(Cl)cc1 | -2 | 3 | -1.3 | 5 | 3 | 1.9 | -6 | 2 | -2.6 | -4
Cc1cccc(Cn2c(N3CCCCC3C)nc3c2c(=O)[nH]c(=O)n3C)c1 (stereo not drawn) | -50 | -66 | -13 | 22 | -8 | -8.5 | 3 | -10 | -0.1 | 3
O=C(Cc1c[nH]c2ccccc12)NC1(C(=O)NC2CCCCC2)CCCCC1 | x | x | x | 13 | -2 | -1.0 | -8 | -1 | -0.6 | -27
COCCNC(=O)c1cc2c(-c3ccc(Cl)cc3)nn(C)c2s1 | -27* | -8.3* | -6.9* | -1 | -15 | -1.9 | 92* | -3 | 0.3 | 20
COc1cccc(N=Cc2c(O)c3ccccc3oc2=O)c1 | -1 | 5 | -0.7 | -19 | 3 | -2.3 | -7 | -3 | 0.9 | 15
Cc1cc(NC(=O)Nc2cccc(C)c2C)no1 | 8 | 4 | 0.8 | -5 | 0 | -6.6 | 99* | 1 | -0.5 | 1
Nc1ccc(-c2nc3ncccc3o2)c(Cl)c1 | -9 | -10 | -3.5 | -3 | -4 | 4.0 | -3 | 6 | -1.2 | u
O=C(NC(=S)Nc1cccc([N+](=O)[O-])c1)C1CCCC1 | 4 | 0 | 2.5 | -1 | -4 | 2.2 | 4 | 1 | 0.2 | 6
Cc1ccc2sc(N3CCN(C(=O)C4=COCCO4)CC3)nc2c1C | -8 | -7 | 0.3 | -5 | -10 | -2.3 | -35 | x | 1.2 | 9
Cc1onc(-c2ccccc2Cl)c1C(=O)Nc1ccc2c(c1)OCO2 | x | x | x | -3 | 3 | 4.0 | -3 | -5 | -0.3 | -7
COc1cc(C(C)=O)ccc1OCC(=O)NCC(c1ccc(F)cc1)N1CCOCC1 (stereo not drawn) | 16 | 10 | 2.7 | x | -1 | 2.3 | -3 | -6 | -1.5 | x
NCC(c1ccco1)c1c[nH]c2ccccc12 (stereo not drawn) | 5 | 12 | 2.5 | 2 | 9 | -0.7 | -4 | x | 0.5 | 3
O=C(Oc1ccccc1N1C(=O)C2CCCCC2C1=O)c1ccc(Cl)cc1 (stereo not drawn) | x | x | x | 9 | 6 | 5.4 | -5 | -3 | 0.1 | -2
Cc1c(Cl)cccc1NC(=O)CCN1CCOCC1 | 7 | 10 | 4.9 | -6 | 4 | -5.8 | -4 | -3 | -0.5 | 5
CCOC(=O)c1c(CN2CCOCC2)oc2ccc(OC(C)=O)cc12 | 7 | 12 | 4.0 | -2 | -8 | 6.7 | 3 | 5 | -0.1 | 7
CC(C)(C)c1cc(CCC(=O)NCc2cccnc2)cc(C(C)(C)C)c1O | -10 | -10 | -4.0 | 1 | 2 | 5.5 | 28 | -1 | u | -16
Nc1nonc1-n1nnc(C(=O)N/N=C/c2cccnc2)c1CSc1ccccc1 | -3 | -17 | 0.5 | 3 | 3 | 1.7 | -6 | -4 | -0.5 | 5
Cc1oc(-c2ccccc2Cl)nc1CN(Cc1ccccn1)C[C@@H]1CCC(=O)N1 | 13 | 8 | -0.9 | -4 | 2 | 1.6 | -7 | 4 | 0.1 | -14
CS(=O)(=O)c1ccc2nc(NC(=O)c3ccc(NS(=O)(=O)c4ccc(F)c(F)c4)cc3)sc2c1 | 2 | 4 | 1.0 | -19 | 8 | 8.1 | 4 | 5 | -1.5 | 8
Cc1cc(C)c(-c2csc(NC(=O)C3=COCCO3)n2)c(C)c1 | -22 | -22 | -5.9 | 6 | -1 | -1.6 | 31 | 11 | 0.0 | 17
COc1ccc(NS(=O)(=O)c2ccc(NC(=S)NC(=O)c3cccnc3)cc2)nn1 | 8 | -8 | -3.1 | 2 | 0 | 0.8 | 13 | x | -0.8 | 16
CN(CC(=O)Nc1ccccc1C(=O)NC1CC1)Cc1ccc(N(C)C)cc1 | 5 | 11 | -2.2 | x | -15 | -0.5 | -4 | 0 | 0.5 | x
C/C(=N\NC(=O)c1cc(Br)ccc1O)c1cccs1 | -25 | -14 | 2.3 | -11 | 3 | -4.4 | -11 | 0 | -3.9 | 37
O=C(c1ccc(NS(=O)(=O)c2cccs2)cc1)N1CCCCC1 | x | x | x | -13 | 5 | 7.8 | -8 | 1 | 0.2 | 8
O=C(COC(=O)c1nsc(Cl)c1Cl)NC1CCCCC1 | 7 | 10 | 1.8 | 1 | -13 | -0.5 | 0 | -6 | 0.1 | 0
CCOC(=O)c1c(-c2ccccc2)c2cc(OC)ccc2n1CCCN(C)C | -46 | -68 | -0.9 | 59* | 6 | -0.3 | x | 3 | 0.1 | -3
Nc1ccc(-c2nc3cc(N)ccc3o2)cc1 | 2 | -3 | -4.4 | -20 | -11 | -1.0 | 93* | -2 | -6.0 | -11
CC(=O)Nc1ccc(S(=O)(=O)NCC2CCCO2)cc1 (stereo not drawn) | 5 | 1 | 3.8 | x | -4 | 3.4 | -17 | 1 | 0.4 | 13
CCOc1ccc(C(=O)N2CCC3(CC2)NCCc2[nH]cnc23)cc1 | 6 | 11 | -2.9 | 13 | 3 | 2.7 | -4 | -1 | -1.9 | 1
CC(C)c1nnc(NC(=O)C2CCN(c3cnccn3)CC2)s1 | x | x | x | 8 | 0 | -0.6 | 0 | -9 | -0.2 | -4
CCN1CCCC1CNC(=O)Cn1cccc1C(=O)c1ccccc1C (stereo not drawn) | x | x | x | -25 | -1 | 2.5 | -21 | -2 | -1.7 | 4
O=C(Nc1ccccc1N1CCCC1)c1cc(S(=O)(=O)N2CCOCC2)ccc1Cl | -8 | -14 | -2.7 | 5 | 28 | -0.5 | 49 | -5 | 0.8 | -7
CSc1ccccc1C(=O)Nc1nccs1 | x | x | x | -3 | -2 | -2.7 | -8 | -7 | -0.5 | -2
COc1ccccc1NC(=O)COC(=O)CNC(=O)c1ccc(OC)c(OC)c1 | x | x | x | -9 | 0 | -2.6 | x | -2 | 0.0 | -7
Cc1cccc(C)c1OCC(=O)Nc1ccc(S(=O)(=O)Nc2ccccn2)cc1 | -5 | -14 | -1.7 | -7 | 5 | 3.1 | -4 | x | -0.4 | -9
COc1cc2c(CCNC(C)=O)c[nH]c2cc1O | 13 | 5 | -1.1 | 1 | -2 | -2.6 | 80* | x | 0.1 | 7
COc1cc(C2Nn3c(nnc3-c3ccccc3OC)S2)ccc1O (stereo not drawn) | x | x | x | -8 | -5 | 3.4 | 99* | 1 | -0.1 | -2
COc1ccccc1C(=O)NCCC(=O)N(C)Cc1cccnc1 | 0 | 0 | -2.2 | x | -1 | -0.4 | -1 | -2 | 1.5 | x
CCCCN(C)CCNC(=O)c1cc2cc3ccc(OC)cc3nc2o1 | -3 | -1 | 0.6 | 53 | 1 | -4.3 | 3 | -5 | 0.5 | 0

# Other structures follow:
SMILES | Ecoli rRNA inh | Ecoli rRNA inh OD600 | Ecoli rRNA inh RFP | T cruzi repl | Beta2AR agonist | LANA-H2B inh | ALR inh | Beta apoptosis | A1 inh | Calb FLC
O=C(O)C[C@H]1c2cc(C(F)(F)F)ccc2S(=O)(=O)N1C1CCN(Cc2ccccc2)CC1 | 11 | 5 | -0.7 | -18 | 1 | 3.3 | x | 1 | 0.4 | -9
Oc1c(Br)cc(C2N=C(c3ccccc3Cl)NO2)cc1Br (stereo not drawn) | x | x | x | -10 | 2 | 1.1 | 25 | -3 | 1.0 | 35
Cc1ccn2c(/C=N/OCc3cccc(F)c3)c(-c3ccc(Cl)cc3)nc2c1 | x | x | x | 47 | 3 | -0.2 | x | 10 | -0.5 | 32
Cc1cccc(NC(=O)CN2C(=O)NC3(CCCC3)C2=O)n1 | 6 | 9 | -1.7 | 0 | -6 | x | x | 5 | 1.4 | 2
CN(C)CCNC(=O)c1cc2sc3ccccc3c2s1 | -10 | -16 | 0.2 | 59* | 2 | -2.5 | x | -4 | -0.3 | 23
COc1ccc(C[C@H]2CN3C(=NC[C@H]3C)N2CCNC(=O)c2ccc(C)c(Br)c2)cc1 | -50 | -57 | -10 | 46 | 7 | 1.1 | -9 | -13 | 1.2 | 21
COc1c(F)c(F)cc2c(=O)c(C(=O)O)cn(C3CC3)c12 | -59 | -83 | -20 | 5 | 9 | -2.9 | 58 | -3 | 0.2 | 6
COc1ccc(CC(=O)NCc2cccs2)cc1 | x | x | x | -1 | -7 | -1.7 | x | 2 | -0.5 | -3
Clc1ccc(Nc2ncn[nH]2)c(Cl)c1 | -4 | 4 | -1.9 | -5 | -7 | 7.3 | 11 | -15 | 0.1 | -2
CCOC(=O)c1c(C)c(C(=O)Nc2ccc3c(c2)OCO3)c(C)n1C | x | x | x | 2 | -12 | -0.9 | -8 | 1 | 1.0 | 4
Cc1noc(C)c1COc1ccc(C(=O)NCC2CCCO2)cc1 (stereo not drawn) | x | x | x | -3 | 11 | -1.0 | -4 | 1 | -0.7 | -1
CSc1ccc(CCNC(=O)C2CCCN(c3nn4c(=O)cc(C)nc4s3)C2)cc1 (stereo not drawn) | -2 | 1 | 3.4 | 5 | -4 | 11 | x | -3 | 1.3 | 7

# Only part of the results is shown; count on the stated rates, not on these rows.
